Screening results (PubChem)
Tg IFNy HTS: blocks Toxoplasma gondii growth in the presence of IFN-gamma; 69,000 compounds, 3.8% hits; activity change, negative = inhibition, %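 (about 20 µM by stock and volumes)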; Toxoplasma gondii growth in IFN-gamma-treated host cells; stronger effect = lower value; reference of the scale not given here;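 active = below -70%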;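 also: host cells are HeLa cells infected with Toxoplasma gondii; parasite growth read as luciferase light; one replicate is shown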
Active calls of the source: *; i = inactive; & = joins results of further samples. A portion of the library (hit frequency here may not be typical).

Preview, 2 compounds:
nr | molecule | Tg IFNy HTS
1 | O=C(NCCC1COc2ccccc2O1)c1ccc(N2CCCNCC2)nc1 (stereo not drawn) | -13.1
2 | O=C(c1ncoc1-c1ccc(F)cc1)N1CCC2(CC1)C(=O)NCN2c1ccccc1 | 20.9

The listing, repeating the preview:
nr | molecule | Tg IFNy HTS
1 | O=C(NCCC1COc2ccccc2O1)c1ccc(N2CCCNCC2)nc1 (stereo not drawn) | -13.1
2 | O=C(c1ncoc1-c1ccc(F)cc1)N1CCC2(CC1)C(=O)NCN2c1ccccc1 | 20.9
3 | Cc1nc(CCNC(=O)[C@H]2CCCN2S(=O)(=O)c2ccccc2)cs1 | -8.7
4 | CCCc1cnc(C)nc1N1CCCC(c2nnc3ccccn23)C1 (stereo not drawn) | -20.2
5 | COc1ccc2c3c([nH]c2c1)[C@@H](CO)N(C(=O)C1CC1)CC31CCN(C(=O)c2ccncc2)CC1 | 110.4
6 | Cc1ccc(CN2CCc3nc(N4CCCC4)[nH]c(=O)c3C2)cc1 | 37.4
7 | Cc1nc2ccccn2c1CC(=O)NCc1cccnc1N1CCOCC1 | 20.2
8 | CNC(=O)c1cc(=O)n(CC(=O)Nc2ccc(F)cc2F)c2ccccc12 | 12.5
9 | C=CCOCc1cncc2c1CCN(S(=O)(=O)c1ccccc1)C2 | -3.0
10 | CCOc1ccc(-c2nc3c(s2)CN(C(=O)Nc2ccc(C)cc2)CC3)cc1 | -66.1
11 | N#C[C@H]1[C@H](c2ccc(C#Cc3ccccc3F)cc2)[C@@H](CO)N1C(=O)c1cccnc1 | -42.6
12 | CC(C)N1CCCC(Cc2cc(Cl)ncn2)CC1 (stereo not drawn) | -57.9
13 | CCn1ccnc1Cn1cnc(-c2ccccc2)c1-c1c(OC)cccc1OC | 2.3
14 | Cc1nc(-c2ccc(F)cc2)sc1CCNS(=O)(=O)c1ccc(Br)cc1 | -4.8
15 | O=C(NCC[C@@H]1CC[C@H](NC(=O)c2ccncc2)[C@H](CO)O1)Nc1ccc(Cl)cc1 | -37.5
16 | CC(C)c1ccc(NC(=O)CNS(=O)(=O)c2ccc(F)cc2)cc1 | 8.2
17 | CN1CC2(CCCN(C(=O)CCn3nnc4ccccc43)C2)OC1=O (stereo not drawn) | -2.9
18 | CCOC(=O)C1=CC2(CC)CCCN3CCc4c(n1c1ccccc41)C32 (stereo not drawn) | -13.6
19 | CCS(=O)(=O)N1Cc2cc(C(=O)N(C)C)nc(-c3cccc(-c4ccc(C#N)cc4)c3)c2[C@@H]1CCO | 2.0
20 | Cc1oc(-c2ccccc2)nc1Cn1c(=O)cc(C(=O)N2CCOCC2)c2ccccc21 | -24.4
21 | Cn1c(-c2nccn2CCCc2ccncc2)nc2ccccc21 | 6.3
22 | Cc1nc2ccc(NC(=O)CCn3ncc4c3CCCC4)cc2s1 | -3.0
23 | Cc1nc(CCNC(=O)[C@H]2CCCN2S(=O)(=O)c2cccc(Cl)c2)cs1 | 7.0
24 | CN(C)c1ccc(C=C(c2ccc(N)cc2)c2ccc(N)cc2)cc1 | 162.3
25 | C[C@H](CO)N1C[C@H](C)[C@H](CN(C)C(=O)Nc2ccc3c(c2)OCO3)OCCCC[C@H](C)Oc2ccc(NS(=O)(=O)c3ccc(F)cc3)cc2C1=O | 116.4
26 | CC1(C)Cc2c(C#N)c(N)sc(=S)c2CO1 | -3.8
27 | CN(Cc1nnc(-c2ccccc2)o1)C(=O)c1ccc2c(c1)nnn2C1CCCCC1 | -3.1
28 | N#Cc1nccnc1Sc1ccc(Cl)cc1 | -61.7
29 | Cc1cnccc1CN(C)Cc1ccc(-n2ccnc2)cc1 | -13.6
30 | CCS(=O)(=O)Nc1ccc2c(c1)C(=O)N(C)[C@H]1CC[C@H](CC(=O)N[C@@H]3CCN(Cc4ccccc4)C3)O[C@H]1CO2 | 7.4
31 | O=C(Nc1ccc(F)cc1F)N1CCC2(CC1)Nc1ccccc1-n1cccc12 | 290.8
32 | Cc1cccc(-c2nc(C)c(CCNC(=O)C(=O)Nc3ccccc3F)s2)c1 | 61.2
33 | O=C(NC1CCN(Cc2ccccc2)CC1)c1cn2c(n1)CCCC2 | -47.1
34 | CC(=O)N1CCCC2(C1)CN(c1nncs1)CCO2 (stereo not drawn) | -1.2
35 | CC(=O)N(CC1CCC1)C[C@@H]1N[C@@H](CO)[C@H]1c1ccc(C2=CCCC2)cc1 | -49.3
36 | O=C1NCCNC12CCN(S(=O)(=O)c1ccccc1C(F)(F)F)CC2 | 3.3
37 | O=S1(=O)CCC(N2CCCCC2)C1 (stereo not drawn) | -20.4
38 | CON=C1C[C@]2(C[C@@H]3C[C@@H](C/C=C(\C)C[C@@H](C)/C=C/C=C4\CO[C@@H]5[C@H](O)C(C)=C[C@@H](C(=O)O3)[C@]45O)O2)O[C@H](/C(C)=C/C(C)C)[C@H]1C | -61.1
39 | CNc1cc(C(=O)N2CCC(CC(=O)NCCc3ccccc3F)CC2)ccn1 | 1.5
40 | CC(=O)Nc1ccc(C)cc1S(=O)(=O)N1CCC2(CC1)Nc1cc(C)ccc1-n1cccc12 | 1.1
41 | O=C(c1ccccc1Cn1ccnc1)N1CC(=O)N(CCc2ccccc2)C(=O)C1 | 6.2
42 | NS(=O)(=O)c1ccc(-c2cccc3cccnc23)s1 | 15.2
43 | CN1CCN(C(=O)C[C@@H]2CC[C@@H]3[C@H](COC[C@@H](O)CN3Cc3cccc(-c4ccncc4)c3)O2)CC1 | 43.3
44 | COc1cccc(-c2nc3cnccn3c2NCCC(=O)N2CCC(C)CC2)c1 | 81.7
45 | Cc1ccc(NC(=O)c2ccc3c(c2)c(C)cn3C)c(-c2cc(C)[nH]n2)c1 | -48.5
46 | COc1nccnc1-c1ccc(C(C)N2CCCCC2)cc1 (stereo not drawn) | -2.2
47 | CC(=O)OCC(=O)[C@@]1(O)CCC2C3CCC4=CC(=O)C=C[C@]4(C)[C@@]3(Cl)[C@@H](Cl)C[C@@]21C (stereo partly drawn) | 12.8
48 | O=C(NCc1ccc2c(c1)OCO2)c1ccccc1C1CCNC1 (stereo not drawn) | -2.1
49 | O=C(NCCc1csc(-c2ccc(F)cc2)n1)c1ccccc1C(F)(F)F | 45.7
50 | CC(C)NC(=O)N(C)C[C@@H]1Oc2ccc(NC(=O)c3ccncc3)cc2C(=O)N([C@H](C)CO)C[C@H]1C | -3.2
51 | CC(C)C(=O)Nc1cc(N2CC(C(=O)O)CC2=O)ccc1F (stereo not drawn) | -1.0
52 | Cc1cc(C)c(CN2CCCC(Cn3ccnc3C)C2)c(-n2cccn2)c1 (stereo not drawn) | 6.9
53 | COc1ccc2c(c1)NC1(CCN(S(=O)(=O)c3cc(C)c(C)cc3C)CC1)c1cccn1-2 | -0.9
54 | Cc1cnc(C(=O)N2CCCC3(CC2)CNC(=O)O3)cn1 (stereo not drawn) | 11.0
55 | CCOC(=O)c1c(C)[nH]c(CCC(=O)NCCc2c[nH]c3ccc(OC)cc23)c1C | i
56 | O=C(c1ccc2[nH]ccc2c1)N1CCC(Cn2cc(-c3cccnc3)nn2)CC1 | -12.5
57 | CNC[C@H]1OCCCC[C@@H](C)Oc2ccc(N)cc2C(=O)N([C@H](C)CO)C[C@@H]1C | 33.9
58 | COc1ccc(OC)c(-c2oc3ccccc3c(=O)c2O)c1 | 8.4
59 | Cc1ccc(S(=O)(=O)Nc2ccccc2C(C#Cc2ccccc2)N2CCOCC2)cc1 (stereo not drawn) | -54.1
60 | O=C1CNC[C@@H]2[C@H](c3ccc(C#Cc4cccnc4)cc3)[C@@H](CO)N12 | -44.0

Continued:
nr | molecule | Tg IFNy HTS
61 | CC(C)Cc1nc(CN(C)Cc2ncc[nH]2)no1 | 8.6
62 | Cc1nc(-c2ccc(F)cc2)sc1CCNC(=O)c1c(F)cccc1F | -24.7
63 | CC(c1nncn1C(C)C)n1cc(CCc2ccccc2)nn1 (stereo not drawn) | -4.1
64 | O=C(NC1CCN(CCCCC2(C(=O)NCC(F)(F)F)c3ccccc3-c3ccccc32)CC1)c1ccccc1-c1ccc(C(F)(F)F)cc1 | -73.7*
65 | CCc1ccc(-c2c(-c3ccccc3)ncn2CCCO)o1 | -16.0
66 | OC[C@H]1[C@H](c2ccc(-c3cccnc3)cc2)[C@@H]2CN(Cc3ccccn3)CCCCN12 | -10.3
67 | O=C(Nc1ccc(Cl)cc1)C1Cn2ccnc2C2(CCN(C(=O)c3ccno3)CC2)O1 (stereo not drawn) | -0.4
68 | CCOc1ccccc1OCc1nn2c(Cn3cnc4ccccc43)nnc2s1 | 77.5
69 | O=C(c1cccc(Cl)c1)N1CCC(N2CCc3ccccc32)CC1 | i
70 | N#CCN1CCOC2(CCN(c3nccs3)CC2)c2ccccc21 | -1.1
71 | O=S(=O)(c1cccc2c(Cl)cccc12)N1CCCNCC1 | -14.1&-16.1
72 | O=C(Nc1ccccc1OCCOc1ccccc1)C1CCCNC1 (stereo not drawn) | -3.6
73 | COc1cccc2c1OCC(C(=O)N(C)Cc1snnc1C)C2 (stereo not drawn) | -12.4
74 | CCOc1ccc(C2c3[nH]c4ccccc4c3CCN2C(=O)c2ccnn2C)cc1 (stereo not drawn) | -29.3
75 | CCc1nc(OCC(=O)Nc2ccc(C)cc2Cl)c2ccccc2n1 | -21.1
76 | CN(C)c1ccc(CNc2nc(-c3nnc(-c4ccc(Cl)cc4)o3)nc3ccccc23)cc1 | 128.7
77 | O=C(C[C@@H]1CC[C@H]2[C@@H](COC[C@@H](O)CN2C(=O)c2ccncc2)O1)Nc1ccc(-c2ccccc2)cc1 | -62.1
78 | CCOc1cc(C(=O)N2CCc3c([nH]c4ccccc34)C2c2cccnc2)cc(OCC)c1OCC (stereo not drawn) | -66.6
79 | CN(C)C(=O)c1cc2c(c(-c3cccc(/C=C/c4ccccc4)c3)n1)[C@H](CCO)N([S@@](=O)C(C)(C)C)C2 | -33.0
80 | COc1ccc(S(=O)(=O)N2C[C@@H]3OCCN(Cc4cnn(C)c4)[C@H]3C2)cc1 | -6.8
81 | CO[C@H]1CN(C)C(=O)c2cc(NC(=O)c3ccc(Oc4ccccc4)cc3)ccc2OC[C@@H](C)NC[C@@H]1C | -113.9*
82 | O=C(O)Cc1ccc(OC(F)(F)F)cc1 | -9.2
83 | CN1CCCC2(CCN(S(=O)(=O)c3cn(C)cn3)C2)C1 (stereo not drawn) | -0.4
84 | COc1ccc(/C=C\c2nc(=O)c3ccccc3o2)cc1 | -38.3
85 | COc1ccc(C(=O)N2CCC(c3nc(C(=O)N(C)C)c(C)o3)CC2)cc1OC | 75.3
86 | Cc1ccc(N2CCO[C@H]3CN(C(=O)c4ccccn4)C[C@@H]32)nn1 | 1.4
87 | C[C@H]1CN([C@@H](C)CO)C(=O)c2ccccc2-c2ccccc2CO[C@@H]1CN(C)Cc1ccccc1C(F)(F)F | -69.1
88 | C(=C\c1ccc(C2[C@@H]3CN(Cc4ccc5c(c4)OCO5)C[C@H]2N3)cc1)/c1ccccc1 (stereo partly drawn) | -53.1&-30.4
89 | Cc1cccc(NC(=O)C(=O)NCCc2csc(-c3ccc(Cl)cc3)n2)c1C | -15.9
90 | CC(=O)Nc1ccc(N2CC(C)(C)C2=O)cc1 | -5.1
91 | CCc1cnc(N2[C@H](CO)[C@@H](c3ccc(C4=CCCCC4)cc3)[C@@H]2C#N)s1 | -8.8
92 | CCc1cccc(C)c1NC(=O)Cn1c(=O)cc(C(=O)N2CCc3ccccc3C2)c2ccccc21 | 8.2
93 | CCN(CC)S(=O)(=O)c1ccc2c(c1)cc(C(=O)N1CCN(c3ncccn3)CC1)n2C | -3.2
94 | COCC(=O)N1[C@@H](CO)[C@@H]2c3ccccc3N(C)C[C@@H]21 | 3.8
95 | Cc1nonc1CNC(=O)CC1CCNCC1 | -22.8
96 | COC(=O)c1c(NCC(C)C)c2cc(F)ccc2[nH]c1=O | -29.6
97 | Cc1ccc(CN(CCCn2ccnc2)Cc2ccncc2)o1 | 29.0
98 | CCN(CCc1nc2ccc(C)cc2[nH]1)C(=O)Cc1csc(C)n1 | -30.6
99 | CCc1nccc(CN2CCCn3nc(C(=O)OC)cc3C2)n1 | -1.2
100 | O=C(c1cncc(NS(=O)(=O)c2ccc(F)cc2)c1)N1CCc2ccccc21 | 0.5
101 | NS(=O)(=O)c1ccc(NC(=O)Nc2ccc(F)cc2)cc1 | 25.4
102 | COCCOC(=O)c1sc2ncn(CC(=O)NCc3ccco3)c(=O)c2c1C | 30.2
103 | Cc1nc(N)ccc1-c1cccc(O)c1 | 9.2
104 | CC(C)N1CCC2(CC1)CC(CC(N)=O)c1ccc(F)cc12 (stereo not drawn) | 0.8
105 | COCc1ccc(C(=O)NC2CCCc3c2cnn3C)o1 (stereo not drawn) | -10.2
106 | O=C(c1cccc2c1NCCC2)N1CC[C@@H](c2ccc3c(c2)OCO3)[C@H](O)C1 | 19.1
107 | CCOC(=O)c1nc(NCCc2c[nH]c3ccc(OC)cc23)c2c(C)noc2n1 | 80.6
108 | CN1CCN(S(=O)(=O)c2ccc(C(=O)NC3CCCCC3)cc2)CC1 | -5.7
109 | COc1cccc(-n2c(=O)c(C(=O)NCc3ccc(F)cc3F)c(O)c3cccnc32)c1 | 50.0
110 | Cc1nn(C)c(C)c1-c1ccc(=O)n(CC(=O)NCc2cccc(Cl)c2)n1 | -8.6
111 | CCNC(=O)c1nc(Nc2ccc(F)cc2)c2ccccc2n1 | -41.4
112 | O=C(/C=C/c1ccc(F)cc1)N1CC[C@@]2(O)CCCC[C@H]2C1 | -4.1
113 | O=C(Cc1c[nH]c2ccccc12)N1CCC(O)(C(=O)O)CC1 | 3.5
114 | COc1ccc(-c2nc(C)c(CCNC(=O)c3ccccc3)s2)cc1OC | i
115 | O=C(CCC(=O)Nc1ccc(F)c(Cl)c1)NCCc1cnc[nH]1 | 140.9
116 | Cc1c(CN2CC(=O)N(Cc3ccccc3)CC(O)C2)c(=O)n(-c2ccccc2)n1C (stereo not drawn) | 12.9
117 | CO[C@@H](CN(C)Cc1ccc(-c2ccccn2)cc1)[C@@H](C)CN(C(=O)Nc1ccc(F)cc1)[C@@H](C)CO | 54.6
118 | O=C(Cn1ncc2c(N3CCN(c4ccccn4)CC3)ncnc21)N1CCC(N2CCCCC2)CC1 | 61.3

A second format for 2 compounds above:
118: O=C(Cn1ncc2c(N3CCN(c4ccccn4)CC3)ncnc21)N1CCC(N2CCCCC2)CC1
  Tg IFNy HTS: 61.3
113: O=C(Cc1c[nH]c2ccccc12)N1CCC(O)(C(=O)O)CC1
  Tg IFNy HTS: 3.5
